Assay outcomes as filed in PubChem BioAssay.
Six1-Eya2 inh: blocks human Six1 binding to Eya2; AID 651725; hit rate 0.56% among 360,000; AlphaScreen GST-Six1/His-Eya2 binding, biochemical; stronger effect = lower value; control for the full effect not named in the record; activity change, % (no concentration beside the values); in the data active = activity change below about -65%; inconclusive = about -30% to -65%; inactive = above about -30%; note: % is set by controls: 0 for no effect and ±100 for the full control effect; compound concentration not given in the record
Target sequence (O00167 whole entry, looked up): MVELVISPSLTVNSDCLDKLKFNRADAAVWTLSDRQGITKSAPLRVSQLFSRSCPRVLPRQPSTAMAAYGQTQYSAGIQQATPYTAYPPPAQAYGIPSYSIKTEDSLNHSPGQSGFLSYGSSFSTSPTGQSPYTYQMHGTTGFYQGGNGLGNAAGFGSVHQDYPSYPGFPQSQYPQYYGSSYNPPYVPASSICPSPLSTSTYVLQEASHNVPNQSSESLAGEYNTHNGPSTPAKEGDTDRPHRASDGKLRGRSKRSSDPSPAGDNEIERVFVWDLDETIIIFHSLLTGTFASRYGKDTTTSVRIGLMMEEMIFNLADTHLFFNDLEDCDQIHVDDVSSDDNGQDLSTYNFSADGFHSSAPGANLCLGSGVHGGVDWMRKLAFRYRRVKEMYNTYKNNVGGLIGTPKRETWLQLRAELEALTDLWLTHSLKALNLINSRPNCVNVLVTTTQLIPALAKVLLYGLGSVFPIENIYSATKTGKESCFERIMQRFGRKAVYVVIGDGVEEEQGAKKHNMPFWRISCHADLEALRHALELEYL
Target sequence (Q15475 whole entry, looked up): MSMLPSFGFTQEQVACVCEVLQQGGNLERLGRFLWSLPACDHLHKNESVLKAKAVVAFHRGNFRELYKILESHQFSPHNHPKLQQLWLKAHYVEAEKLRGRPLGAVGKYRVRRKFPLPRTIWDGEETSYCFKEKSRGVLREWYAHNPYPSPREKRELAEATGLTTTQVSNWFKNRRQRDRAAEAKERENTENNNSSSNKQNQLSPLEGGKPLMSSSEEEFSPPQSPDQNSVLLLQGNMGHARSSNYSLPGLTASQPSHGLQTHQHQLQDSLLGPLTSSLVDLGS
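Six1/Eya2 binding was read as AlphaScreen signal after compounds were pinned into GST-Six1 plus His-tagged Eya2 (5X stock 250/500 nM) in pH 8.0 Tris/NaCl/TCEP buffer, beads added, then incubated 1 h, 37 C, dark.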
D2 PAM: human D2 receptor positive allosteric modulation; AID 624464; potentiation, % (concentration not given with the values); hit rate 0.23% among 360,000; DiscoveRx D2 beta-arrestin cells, luminescence, 90 min; 100% = 57 uM dopamine signal; P14416; active = potentiation of 50% or more; inconclusive = 30% to 50%; inactive = 30% or less;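 note: compound concentration not given in the record; tested on top of an EC20 dose of dopamine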
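PathHunter beta-arrestin assay in DiscoveRx D2 cells. Compounds were added with an EC20 of dopamine (50 nM final) for 90 min at 37 deg C. Luminescence was read 1 h after detection reagent, with 57 uM dopamine as the EC100 control.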
PINK1 modulator: PINK1 expression modulation; PINK1 immunofluorescence, high-content cytometry, 24 h; Potency, µM (series often up to 76.6 µM), for the others: top-dose activation (PINK1 increase), actives largely listed as activators; hit rate 0.2% among 410,000; AID 624263; active = well fitted activation curve with a large enough effect; inconclusive = small, poorly fitted or top-dose-only effect; inactive = flat fitted curve, though single readings scatter; cell line not stated here;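 note: potency is the fitted concentration of half-maximal effect; % of control where 0% means no effect; nearly all actives have a fitted effect of over 65% in size; a mitochondrial uncoupler was the plate control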
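Cells are seeded, rested 12 hours, then given compound at five concentrations or DMSO for 24 hours. After fixation, blocking and antibody staining, PINK1 amount and mitochondrial localization are scored; CCCP serves as control.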
Sfp inh: Sfp phosphopantetheinyl transferase inhibition. Q9F4F7. Biochemical Sfp PPTase activity, qHTS. Potency, µM, inactives show max response, negative = inhibition, most hits filed as inhibitors. hit rate 3.5% among 310,000. AID 1490; active = well fitted inhibition curve with a large enough effect; inconclusive = small, poorly fitted or top-dose-only effect, or another doubt; inactive = no such curve, though single readings can be large or run the other way;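 note: the enzyme is Sfp with the accession as filed and its product quenches rhodamine fluorescence; potency is the fitted concentration of half-maximal effect; 0% = enzyme reaction without inhibitor and -100% = no enzyme wells; top concentration of the series not given in the record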
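Step 1, compound plus 15 nM Sfp-PPTase, 15 min, room temperature. Step 2, add rhodamine-CoA (5 uM) and BHQ-2-YbbR (12.5 uM). Step 3, read 525/598 nm fluorescence at 0 and 30 min.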
CtBP-E1A inh: CtBP/E1A binding inhibition. AlphaScreen GST-E1A/His-CtBP binding, 1536-well; stronger effect = lower value; control for the full effect not named in the record. activity change, % (no concentration beside the values). hit rate 0.49% among 340,000; in the data active means activity change below about -65%; inconclusive means about -30% to -65%; inactive means above about -30%; note: % is set by controls: 0 for no effect and ±100 for the full control effect; compound concentration not given in the record
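In 5 uL wells, 23 nL compound meets equimolar GST-E1A and His-CtBP (5X stock 125 nM each) for 2 h, 37 °C. Beads (5X, 50 ug/mL) then 1 h, 37 °C, dark.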
TRPV1 potentiator: enhances activation of the human vanilloid receptor TRPV1. AID 540277. TRPV1-expressing cells, Fluo-8 calcium influx, capsaicin EC20 potentiation; host cell line not named in the record; control for the full effect not named in the record. potentiation, % at 8.33 µM. Q8NER1. hit rate 0.02% among 320,000; active means potentiation above 80%; inconclusive means 30% to 80%; inactive means below 30%; note: 0% is about no effect
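TRPV1-expressing cells were cultured overnight at 35.5C and loaded with Fluo-8 calcium dye for 40 to 90 min at room temperature. After a 10 s baseline, compound was added and calcium influx was read kinetically for 3 min (ex 480/em 520 nm).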
D2 agonist: agonists of human D2 dopamine receptor (beta-arrestin); P14416; DiscoveRx PathHunter D2 beta-arrestin, luminescence, 90 min; 100% = 57 uM dopamine signal; activation, % (test concentration not listed); hit rate 0.084% among 360,000; AID 624465; in the data active = activation above about 40%; inconclusive = about 15% to 40%; inactive = below about 15%; note: compound concentration not given in the record; the text of the record calls up to 30% inactive
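Agonist mode: compounds alone added to overnight-plated D2 PathHunter cells for 90 min at 37 C, with 57 uM final dopamine (EC100) defining full response. Beta-arrestin recruitment detected by chemiluminescent reagent, read after 1 h at ambient temperature.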
* hit, by the source's call; ? = inconclusive; nt = no result given; & = joins results of further samples; [ ] = dose if it differs, or a comment.

SMILES	Six1-Eya2 inh	D2 PAM	PINK1 modulator	Sfp inh	CtBP-E1A inh	TRPV1 potentiator	D2 agonist
O=C(CN(Cc1ccco1)C(=O)CNS(=O)(=O)c1ccc(Cl)cc1)NC1CCCCC1	3.3	-34.2	?	-2.4%	-4.3	-0.7	-3.1
Cc1cc(Cl)ccc1OCC(=O)N(Cc1ccco1)c1c(N)n(Cc2ccccc2)c(=O)[nH]c1=O	-1.3	-7.3	10.2%	nt	0.0	nt	-1.2
COc1cc(CNc2ccc3[nH]c(=O)[nH]c3c2)ccc1OCc1cccc(C)c1	-25.0	9.2	9.4%	-9.1%	-11.0	-13.8	5.6
COC(=O)c1c(C(C)=O)cnc2ccc(Br)cc12	13.4	10.1	1.0%	6.2%	-6.3	6.9	0.6
COc1ccc2[nH]c3c(=O)n(Cc4ccc(C(=O)N5CCCCCC5)cc4)c(=S)[nH]c3c2c1	1.7	-17.5	4.8%	9.5%	nt	9.7	0.3
Cc1ccc(OCCn2cc(C(=O)O)c3ccccc32)cc1	4.6	-5.8	3.5%	13.3%	-0.1	15.8	-2.0
O=C(Cn1c(CCCO)nc2ccccc21)Nc1ccccc1-c1ccccc1	7.5	-3.5	1.5%	13.4%	1.6	1.5	-1.7
Cc1ccccc1OCC(=O)Nc1cccc(Cl)c1C	14.5	-8.2	5.9%	11.3%	13.8	-2.0	-2.9
CCN(CC)Cc1cc(C(=O)O)c(C)o1	1.4	-2.4	0.3%	19.3%	19.1	-5.7	-0.2
Cc1nccn1CCC(=O)NC1CCCc2c1cnn2-c1ccc(C(C)(C)C)cc1 (stereo not given)	23.4	-7.1	3.5%	nt	24.9	nt	2.6
CN(C)c1ccc(/C=C2\SC(=O)N(CC(O)Cn3c4ccccc4c4ccccc43)C2=O)cc1 (stereo not given)	1.0	2.3	?	15.9%	0.8	-3.1	1.0
CC1=C(C(=O)OC2CCCCCCC2)C(c2ccc(O)cc2)NC(=O)N1 (stereo not given)	-8.1	12.8	-0.9%[38.3 µM]	12.4%	0.4	nt	-0.2
CC(C)Cn1nc(NC(=O)c2cccs2)c2cc3ccccc3nc21	6.0	-6.5	0.5%	1.6%	nt	-22.4	-0.6
CC(OCC(O)CN1CCN(S(=O)(=O)c2ccc(Cl)cc2)CC1)c1ccc(Cl)cc1 (stereo not given)	-4.1	-15.7	?	nt	-6.4	nt	-0.6
O=C(CSc1ccc(-c2cccnc2)nn1)Nc1ccc(Br)cc1	-7.1	0.8	5.6%	10.5%	-0.6	0.8	-2.1
O=[N+]([O-])c1ccccc1S(=O)(=O)Nc1ccc(S(=O)(=O)N2CCOCC2)cc1	-10.1	-2.1	-1.4%	7.2%	-1.3	-1.8	-3.0
CCCn1c(N)c(C(=O)CSc2nc(C)nc3sc(C)c(C)c23)c(=O)[nH]c1=O	5.2	-11.9	5.7%	nt	-0.4	-8.2	-2.9
CC(=O)Nc1ccc(-n2c(=O)c3ccccc3c3ccccc3c2=O)cc1	1.9	-9.5	2.0%	9.6%	-1.1	3.5	-11.9
O=C(CCc1ccccc1)NNC(=O)COc1ccccc1Cl	-1.6	-6.5	1.9%	9.4%	-1.3	-3.6	-3.4
O=C(CN1CCS(=O)(=O)CC1)N/N=C/c1cccc(C(F)(F)F)c1	-6.5	-28.7	-1.1%	9.7%	-1.1	1.5	-2.2
CC1CCN(c2c(NCC3CCC(C(=O)NCCCc4ccccc4)CC3)c(=O)c2=O)CC1 (stereo not given)	-4.4	-4.1	-1.7%	5.4%	-12.0	-27.3	-1.5
C/C(=N\OC(=O)Nc1ccc(Cl)cc1)c1ncc(C(F)(F)F)cc1N1CCOCC1	1.6	-16.8	0.5%	5.5%	0.3	-4.8	-1.8
O=C(COC(=O)c1cccs1)Nc1ccc(S(=O)(=O)N2CCOCC2)cc1	-7.9	-6.5	4.1%	13.9%	-10.6	-5.0	0.6
Cc1cc(C)cc(OCC(=O)O/N=C(\N)Cc2ccc([N+](=O)[O-])cc2)c1	6.5	-2.1	5.2%	-24.1%	4.4	-4.8	7.0
CCOc1ccc(NC(=O)CSc2nnc(C)n2CC2CCCO2)cc1 (stereo not given)	2.2	-7.4	0.4%	10.0%	2.7	0.6	-0.5
Cc1nn(CC(=O)NCc2ccccc2)c(=O)c2ccccc12	1.2	-11.6	-2.9%[38.3 µM]	9.8%	2.6	-1.6	-1.3
Cc1nn(-c2ccccc2)c(C)c1NC(=O)COc1ccc(F)cc1Cl	-17.8	-7.8	7.0%	-8.4%	-7.1	?	-1.1
O=C(Cn1cnc2c(oc3nc4c(cc32)CCCC4)c1=O)Nc1cccc(Cl)c1	12.3	-6.5	11.4%	19.7%	-16.0	25.8	0.8
C=CCN(Cc1ccc(OC)c(OC)c1)C(=O)N1CCOCC1	11.6	1.6	1.5%	11.1%	4.3	-2.4	4.5
CCCC[n+]1ccn(C2=C([O-])c3ccccc3C(=O)/C2=N\S(=O)(=O)c2ccc(Cl)cc2)c1	-12.6	7.4	-0.5%	0.9%	-4.2	4.9	1.6

SMILES	Six1-Eya2 inh	D2 PAM	PINK1 modulator	Sfp inh	CtBP-E1A inh	TRPV1 potentiator	D2 agonist
O=C(O)/C=C/C(=O)Nc1cccc(C(F)(F)F)c1	13.3	-4.9	2.9%	4.9%	5.3	3.9	-0.1
COCCNC(=O)CCCn1c(=O)c2cc(OC)c(OC)cc2n(CC(=O)c2ccccc2)c1=O	-2.4	-10.6	1.0%	-2.2%	0.0	-1.5	-4.7
CN1/C(=C/C2CC(=O)N(c3ccc([N+](=O)[O-])cc3)C2=O)C(C)(C)c2ccccc21 (stereo not given)	-13.1	-11.9	?	44.7µM*	-1.5	-1.1	-0.9
CCOc1ncccc1C(=O)OCC(=O)Nc1ccc(S(=O)(=O)N2CCOCC2)cc1	-12.8	0.2	2.3%	10.3%	nt	-9.5	0.7
Cc1ccccc1N(C)S(=O)(=O)c1nnc(NC(=O)c2ccco2)s1	-8.8	-16.7	-0.3%&0.4%	1.4%	nt	1.4	1.6
Cc1ccc(NC(=O)C2Cc3ccccc3C(=O)O2)cc1 (stereo not given)	-4.3	-5.4	-0.7%	11.0%	4.6	-42.9	-5.6
COC(CNC(=O)c1cn(C)c2ccc(S(=O)(=O)N3CCOCC3)cc2c1=O)OC	0.3	8.0	0.3%	22.6%	-2.1	-3.5	0.5
CC(C)(C)OC(=O)N1CCC(CC2CC(c3ccccc3)=NO2)(C(=O)O)CC1 (stereo not given)	3.2	-33.3	-0.4%	nt	-21.7	nt	1.2
C/C(N)=C(/C#N)C(=O)COC(=O)c1ccncc1	1.4	-3.8	-1.9%	0.0%	-12.0	7.1	-2.4
O=C(O)c1ccc(N/N=C/c2ccc(F)c(F)c2)cc1	-0.9	-3.0	2.0%	-11.7%	1.1	?	-0.4
CN(C)c1ccc(CC(=O)N2CCCC(c3cc(C(=O)Nc4ccc5c(c4)OCO5)no3)C2)cc1 (stereo not given)	?	-5.6	0.6%	nt	-26.8	nt	4.5
COc1ccc(-n2c(COc3cccc(C)c3)nnc2SCC(=O)O)cc1	6.2	-2.6	0.4%	16.9%	3.2	5.9	-1.1
C[C@H](O)[C@@H]1C(=O)N2CCc3ccc(-c4ccccc4)cc3[C@@H]2C[C@@H]1N(C)C(=O)c1ccc(C#N)cc1	-1.0	nt	-0.8%	nt	-1.1	nt	2.4
Cc1ccc(C(=O)NCCS(=O)(=O)N2CCN(c3ccccc3F)CC2)cc1[N+](=O)[O-]	-6.5	-10.9	3.7%	6.6%	-0.6	-6.7	-4.3
Cc1[nH]c(=O)[nH]c(=O)c1S(=O)(=O)N1CCCC(C(=O)N2CCN(c3ccccc3Cl)CC2)C1 (stereo not given)	4.3	-19.0	-0.7%	20.0%	-0.7	0.1	-1.0
CC(NC(=O)CN(C)Cc1cccs1)c1ccccc1 (stereo not given)	-1.1	-1.6	0.0%	20.2%	8.0	-16.5	-0.3
CN(Cc1ccccc1)c1nc2c(c(=O)n(C)c(=O)n2C)n1CCCc1ccccc1	5.8	-14.7	2.0%	13.4%	7.1	8.1	-4.2
C[C@H](CO)N1C[C@H](C)[C@@H](CN(C)Cc2ccc(C(=O)O)cc2)Oc2c(NS(=O)(=O)c3ccc(F)cc3)cccc2C1=O	2.2	-2.4	0.6%	nt	0.7	nt	-0.5
O=C(NC1CCCCC1)C1CCCN1S(=O)(=O)c1ccc(Cl)cc1 (stereo not given)	12.4	-20.1	1.6%	6.8%	-8.8	-8.5	4.0
COc1cccc(-c2c(C(=O)N/N=C(\C)COc3ccccc3)nnn2-c2nonc2N)c1	4.0	-6.3	0.1%	2.5%	-0.7	10.3	-0.7
O=C(COC(=O)c1cccs1)Nc1cccc(S(=O)(=O)N2CCOCC2)c1	-10.3	-6.8	1.0%	1.0%	-1.0	10.0	-1.6
CC(=O)NC(C)(c1ccccc1)c1nc(-c2cc(F)cc(F)c2)cs1 (stereo not given)	1.2	-1.9	0.6%	nt	3.8	nt	1.9
Cc1cc(Cl)ccc1OC(C)C(=O)Nc1ccc(S(=O)(=O)Nc2cnc3ccccc3n2)cc1 (stereo not given)	-10.5	-7.9	1.6%	6.7%	0.9	27.3	-2.3
COCC(=O)Nc1nnc(CCc2ccccc2)s1	4.3	-2.1	5.2%[38.3 µM]	11.4%	1.5	3.5	-2.3
COc1ccc(S(=O)(=O)NCC(=O)N(CC(=O)NCC2CCCO2)Cc2ccc(F)cc2)cc1 (stereo not given)	4.9	-2.5	-2.2%	14.3%	-22.5	?	-2.7
CC1CCN(C(=O)C(Cc2ccccc2)n2cccc2)CC1 (stereo not given)	-13.0	0.3	3.7%	16.5%	-1.1	-20.7	2.3
CN1CCN(C(=S)Nc2cccc(C(F)(F)F)c2)CC1	0.9	-8.6	0.1%	5.0%	0.8	17.0	-0.7

Compound profiles, from the list above. Values in the order: Six1-Eya2 inh | D2 PAM | PINK1 modulator | Sfp inh | CtBP-E1A inh | TRPV1 potentiator | D2 agonist
Results for `O=C(COC(=O)c1cccs1)Nc1cccc(S(=O)(=O)N2CCOCC2)c1` : -10.3 | -6.8 | 1.0% | 1.0% | -1.0 | 10.0 | -1.6
Results for `CC(C)(C)OC(=O)N1CCC(CC2CC(c3ccccc3)=NO2)(C(=O)O)CC1` (stereo not given) : 3.2 | -33.3 | -0.4% | nt | -21.7 | nt | 1.2
